# Assay outcomes: PubChem BioAssay, ICCB-Longwood Screening Facility, Harvard Medical School
# Bm FixLJ act: increases Burkholderia fixLJ two-component signaling | B. multivorans fixK-promoter GFP reporter, 18 h; hits give high values | z-score (concentration not given with the values) | actives 0.3% (n = 29,000) | AID 1918990;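 active = replicate mean overnight rise in green fluorescent reporter signal, 3 or more SD over negative controls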;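 also: score is relative to vehicle wells of the plate; 300 nL library stock went into each well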
# * hit, by the source's call; & = joins results of further samples.
SMILES,Bm FixLJ act
CC1(C)CCN(S(=O)(=O)N2CCC[C@]3(CCCC3O)C2)CC1 (stereo not given in full),-0.27
CCOC(=O)C1=C(CN(C)Cc2ccccc2)NC(=O)NC1c1ccc(OC(C)C)cc1 (stereo not given),-0.16
CC(CC(C(N)=O)(c1ccccc1)c1ccccc1)N(C)C (stereo not given),-1.7
c1cnc(N2CC3CCC(C2)N(Cc2ccc(-n4ccnc4)cc2)C3)nc1 (stereo not given),-1.1
CC(Cn1cncn1)C(=O)N(Cc1ccncc1)Cc1ccc(F)cc1 (stereo not given),-1.4
CC(C)(C)C1CCc2onc(C(=O)Nc3sc4c(c3C(N)=O)CCCC4)c2C1 (stereo not given),-0.3
Cc1ccc(-n2nc3ccc(NC(=O)c4cc5ccccc5o4)cc3n2)cc1,-0.03
CNC(=O)CCCNC(=O)c1cnc(-c2ccc(C)cc2)[nH]c1=O,0.64
Cc1nn(CC(=O)N2CCC(C)CC2)c(=O)c2cc3sccc3n12,-2.4
CCOC(=O)CSc1nc2sc3c(c2c(=O)n1-c1ccc(OC)cc1)CC(C(C)C)OC3 (stereo not given),-0.05

# Reprinted at random: 2 records from the list
SMILES,Bm FixLJ act
c1cnc(N2CC3CCC(C2)N(Cc2ccc(-n4ccnc4)cc2)C3)nc1 (stereo not given),-1.1
CC(CC(C(N)=O)(c1ccccc1)c1ccccc1)N(C)C (stereo not given),-1.7

# Other structures follow.
SMILES,Bm FixLJ act
Cc1ccc(COC(=O)c2ccc(-c3nnn(Cc4ccc(C)cc4)n3)cc2)cc1,-0.85
Brc1cccc(-c2nnn3c2nc(NC2CCCCC2)c2ccccc23)c1,-0.57
CCCCCSc1nnc2c(n1)[nH]c1c(C)cccc12,-0.81
CC(C)(C)NC(=O)CNC(=O)Nc1ccc(-n2cccn2)cc1,0.37
O=C(c1cc(-c2ccsc2)n[nH]1)N1CCCN(C(=O)C2CCOC2)CC1 (stereo not given),0.18
Cc1sc2ncn(CC(=O)Nc3ccc(C(F)(F)F)cc3)c(=O)c2c1S(=O)(=O)N1CCN(C)CC1,-0.55
NC(=O)CN1CCC(NC(=O)c2cccc(-c3ccc(O)cc3)c2)CC1,0.75
Cc1ccc(C(CNC(=O)CSc2ccncc2)N2CCOCC2)o1 (stereo not given),-1.7
CCCCS(=O)CC(O)CSc1nc(-c2ccc(OC)cc2)cc(-c2ccccc2)c1C#N (stereo not given),0.13
O=C(NCCCN1CCN(c2cccc(Cl)c2)CC1)c1nnc(Cc2ccc(F)cc2Cl)o1,-0.89

# 7 structures already listed, arranged by SMILES length, highest first.
SMILES,Bm FixLJ act
Cc1sc2ncn(CC(=O)Nc3ccc(C(F)(F)F)cc3)c(=O)c2c1S(=O)(=O)N1CCN(C)CC1,-0.55
O=C(NCCCN1CCN(c2cccc(Cl)c2)CC1)c1nnc(Cc2ccc(F)cc2Cl)o1,-0.89
Cc1ccc(COC(=O)c2ccc(-c3nnn(Cc4ccc(C)cc4)n3)cc2)cc1,-0.85
O=C(c1cc(-c2ccsc2)n[nH]1)N1CCCN(C(=O)C2CCOC2)CC1 (stereo not given),0.18
NC(=O)CN1CCC(NC(=O)c2cccc(-c3ccc(O)cc3)c2)CC1,0.75
Brc1cccc(-c2nnn3c2nc(NC2CCCCC2)c2ccccc23)c1,-0.57
Cc1ccc(C(CNC(=O)CSc2ccncc2)N2CCOCC2)o1 (stereo not given),-1.7

# (more compounds)
SMILES,Bm FixLJ act
CCOc1ccc(N(C(=O)CC(C)C)S(=O)(=O)c2ccc3c(c2)oc(=O)n3C)cc1,-14
CCc1ccccc1NC(=O)C(=O)NCCCN1CCOCC1,-1.1
NS(=O)(=O)c1cc2c(cc1Cl)NCNS2(=O)=O,-0.21
CCC(=O)N1CCc2cc(S(=O)(=O)NC(CC(C)C)C(=O)NCc3ccc(F)cc3)ccc21 (stereo not given),-0.26
Cc1ccc(NC(=O)Cn2cc(C(=O)c3ccccc3)c3ccccc32)c(C)c1,0.08
Cc1cc(N2CCC(C(=O)Nc3ccc(Cl)cc3)CC2)n2nc(C)c(-c3ccc(Cl)cc3)c2n1,-1.6
CCOc1ccc(CN2CCN(Cc3ccc4c(c3)c3ccccc3n4CC)CC2)cc1,-1
COc1ccc(C(=O)N(Cc2cc(OC)c(OC)c(OC)c2)C2CCS(=O)(=O)C2)cc1Cl (stereo not given),-2.1
Cc1nnc(CCNC(=O)c2ccc3cccc(F)c3n2)s1,-3.9
CCOc1ccc(NC(=O)Cn2c(=O)n(CC3CCC(C(=O)NCCc4ccccc4)CC3)c(=O)c3ccccc32)cc1 (stereo not given),0.62
O=C(c1ccccc1)n1nc(-c2ccccc2)nc1NCc1ccc(F)cc1,-0.91
COc1cc2nc(NCCC(C)C)n3nc(-c4ccccc4)nc3c2cc1OC,0.46
Cc1ccc(CNC(=O)c2oc3ccc(S(=O)(=O)N4CCC(C)CC4)cc3c2C)cc1,-0.53
Cc1nc(CCC(=O)N2CCCC3(CCC(=O)N(C4CC4)C3)C2)n[nH]1 (stereo not given),0.13
C[N+]1(C)C2CCC1CC(OC(=O)C(CO)c1ccccc1)C2 (stereo not given),0.37
CCCC(=O)Nc1ccc(NC(=O)c2sc3ccccc3c2Cl)cc1,-0.14
CCOc1ccc(CCNc2nc3c(-c4ccc(C)cc4)nnn3c3ccccc23)cc1OCC,-1.3
CC(C)NCC(O)COc1cccc2ccccc12 (stereo not given),0.1&2.2
COc1ccc(CCCC(=O)N2CCc3[nH]cnc3C2c2cccnc2)cc1 (stereo not given),-2.8
c1ccc(-c2nnc(CN3CCN(c4ccccn4)CC3)o2)cc1,-0.47
COC1CN(C(=O)CCC(=O)NC2CCCC2)CC1Cc1cc(C)no1 (stereo not given),-0.26
CCOC(=O)c1ccc(NC(=O)C(CC)Sc2nnc3c4ccccc4n(C)c3n2)cc1 (stereo not given),-0.38
Cc1coc2cc3oc(=O)c(CCC(=O)NCc4ccccc4Cl)c(C)c3cc12,-1.2
CCc1cc(C(=O)NCc2ccc(F)cc2)no1,-1.2
Clc1cccc(-c2csc(-c3nc(-c4ccc(Br)s4)cs3)n2)c1,-0.13
O=C(Nc1ccccc1C(F)(F)F)c1noc2c1CCCCC2,-1.6
CCn1ccnc1C1CCCN(C(=O)c2ccc(C)[nH]c2=O)C1 (stereo not given),-1.1
CCCCNc1nc2c(-c3cccc(Br)c3)nnn2c2ccccc12,-1.2
CCCOc1cccc(C2c3c(-c4ccccc4O)n[nH]c3C(=O)N2Cc2ccco2)c1 (stereo not given),1.3
COc1ccccc1NC(=O)c1cc2c(C)nn(-c3ccccc3)c2s1,0.48
COc1ccc(O)c(C2CC(=O)Nc3n[nH]c(-c4cccnc4)c32)c1 (stereo not given),-0.68
Clc1ccc(-c2nc3c4cnn(-c5ccccc5Br)c4ncn3n2)c(Cl)c1,-0.7
C=C(C)COc1cccc(NC(=O)N2CCC(O)(CO)C2)c1 (stereo not given),-1.2
Cc1nc(-c2cccc(C(=O)N(C)Cc3noc(CC(C)C)n3)c2)nn1C,-0.03
CN(Cc1cc(-c2ccccn2)no1)S(=O)(=O)c1ccsc1C(=O)O,0.49
Cc1ccc(NC(=O)C2CCN(c3nn4c(=O)cc(C)nc4s3)CC2)cc1,-0.47
Cc1ccc2nc(-c3cc(NC(=O)c4ccc5c(c4)OCCO5)ccc3Cl)oc2c1,-0.28
CCC(=O)N1CCc2cc(Br)cc(S(=O)(=O)N3CCN(c4ccc(C(C)=O)cc4)CC3)c21,-1.1
Cc1cccc(C)c1Nc1c(-c2ccsc2)nc2cccc(C)n12,-0.39
Cc1ccc2c(c1)Cc1c(nc(-c3ccc(F)cc3)nc1SCC(=O)N1CCCCC1)O2,-2.1
Cc1ccc(-c2nnc(Nc3ccc(O)cc3)c3ccccc23)cc1S(=O)(=O)N1CCCCC1,0.69
O=C(NCCn1cc(SCc2ccc(F)cc2)c2ccccc21)c1c(F)cccc1F,0.57
Nc1nc(C2CCOC2)cc(N2CCN(CC=Cc3ccccc3)CC2)n1 (stereo not given),0.87
CCCN1C(C(=O)c2ccccc2)=C(OC(=O)COc2ccccc2)c2ccccc2S1(=O)=O,-3.1
Cc1cnc(C)c(-c2cc(O)c3c(c2)CN(Cc2cnc[nH]2)CCO3)n1,-0.17
C#C[C@]1(O)CCC2C3CCC4=Cc5oncc5C[C@]4(C)C3CC[C@@]21C (stereo not given in full),0.49
COc1ccc(-c2cc(C(F)(F)F)nc(SCCC(=O)Nc3ccc(O)cc3)n2)cc1,-0.22
Cc1nnc(CCNC(=O)c2nn(C)c3ccccc23)s1,-0.63
Cc1cc(C)c2c(=O)c3c(oc2c1)C(=O)N(Cc1ccc(F)cc1)C3c1cccc(O)c1 (stereo not given),-0.32
COc1ccc(-c2cc(C(F)(F)F)n3nc(C(=O)Nc4cc(Cl)cc(Cl)c4)cc3n2)cc1,0.66

# (more compounds)
SMILES,Bm FixLJ act
COc1cc(OC)c(NC(=O)Cn2cnc3sc(C)c(S(=O)(=O)N4CCN(C)CC4)c3c2=O)cc1Cl,-0.19
O=C(NCCc1noc(CO)n1)c1cc2c(s1)C1(CCNCC1)OCC2,-0.88
Cc1cccc(NC(=O)C(=O)NCCCN2CCOCC2)c1,-1.1
CCc1ccc(OCC(=O)N(Cc2ccco2)Cc2ccccc2Cl)cc1,1.2
COCC1(C(=O)NC2COCC2Cc2ccnc3ccccc23)CCC1 (stereo not given),0.48
Cc1ccc(CN(C(=O)COc2ccc(C(C)C)cc2)C2CCS(=O)(=O)C2)o1 (stereo not given),-0.08
COc1cccc(C(=O)Nc2ccc3oc(-c4cccc5c(Br)cccc45)nc3c2)c1,1
COc1ccc2nc3sc(C(=O)NCCc4ccc(Cl)cc4)cc3cc2c1,-1.9
COc1cncc(C(NC(=O)CCN2CCCC2=O)C2CC(O)C2)c1 (stereo not given),-0.2
CN(Cc1n[nH]c2c1CCC2)C(=O)NCCc1csc(-c2cccnc2)n1,-0.32

# Reformatted with bars between the fields: part of the list above
molecule | Bm FixLJ act
COc1ccc(-c2cc(C(F)(F)F)n3nc(C(=O)Nc4cc(Cl)cc(Cl)c4)cc3n2)cc1 | 0.66
COc1cc(OC)c(NC(=O)Cn2cnc3sc(C)c(S(=O)(=O)N4CCN(C)CC4)c3c2=O)cc1Cl | -0.19

# Returning to the listing, repeating the three entries before the break.
SMILES,Bm FixLJ act
COc1ccc2nc3sc(C(=O)NCCc4ccc(Cl)cc4)cc3cc2c1,-1.9
COc1cncc(C(NC(=O)CCN2CCCC2=O)C2CC(O)C2)c1 (stereo not given),-0.2
CN(Cc1n[nH]c2c1CCC2)C(=O)NCCc1csc(-c2cccnc2)n1,-0.32
COc1cccnc1-c1ccc(C(=O)NC2CCCNC2=O)cc1 (stereo not given),-2.1
CC(C)CC(=O)C1CCCN(C(=O)c2ccc(N3CC(n4cccn4)C3)nc2)C1 (stereo not given),1.5
CCc1nc(SCC(=O)NCCc2n[nH]c3c2CCCC3)n[nH]1,0.37
Cc1ccccc1Nc1c(-c2cccnc2)nc2ccc(Cl)cn12,-0.12
COC(=O)NNC(=O)C1CCC(C)CC1 (stereo not given),-0.55
Cc1c(C(=O)O)oc2c1-c1nn(Cc3ccccc3Cl)cc1CC2,0.4
CCOC(=O)c1ccc(N2C(=O)c3n[nH]c(-c4cccs4)c3C2c2ccc(OCC)cc2)cc1 (stereo not given),-0.8
COc1ccc(/C=C\c2onc(C)c2S(=O)(=O)N2CCC(C(=O)Nc3ccc(C)c(F)c3)CC2)cc1,-0.21
CCn1c(=O)cc(OCC(=O)NCc2ccc(F)cc2Cl)c2ccccc21,0.07
CC(=O)NCC1CCN(c2nc3c(s2)c(C)nn3C)CC1,1.1
CCOc1ccc(C(=O)c2oc3ccccc3c2NC(=O)Cc2coc3cc(C)cc(C)c23)cc1,-0.81
Cc1ccc(NC(=O)c2cc3nc(-c4ccccc4)cc(-c4ccccc4)n3n2)cc1,-1.7
CCOCCCn1c(=N)c(S(=O)(=O)c2ccc(C)cc2)cc2c(=O)n3cccc(C)c3nc21,-2.6
Cc1ccccc1OCCn1cc(C(=O)C2CCCCC2)c2ccccc21,0.56
Cc1cc(=O)c(C(=O)N2CC3CCC2CN(Cc2ccc(F)cc2)C3)c[nH]1 (stereo not given),-1.7
COc1ccccc1CNC(=O)CCNS(=O)(=O)c1ccc2c(c1)oc(=O)n2C,-0.76
O=C(O)CSc1nnc(-c2ccc(O)cc2)o1,-2.7
CCc1ccc2occ(CC(=O)Nc3c(C(=O)Nc4ccc(Cl)cc4)oc4ccccc34)c2c1,-1
CCc1cc(=O)oc2c(C)c3c(cc12)CN(CCc1ccccc1)CO3,-1.2
CNC(=O)CN1CCC(N2CC(COc3ccc(F)cc3)OCC2=O)CC1 (stereo not given),-3.8
CCOC(=O)c1cccc(NC(=O)[C@@H](c2ccccc2)N2Cc3ccccc3C2=O)c1,-0.11
CCCc1cc(C(=O)N2CC[C@@]3(C(=O)O)CCCN(C)[C@H]3C2)n[nH]1,-0.77
COc1ccc(C2C(CO)OCCN2C(=O)c2cnn(C(C)C)c2)cc1OC (stereo not given),-1.8
CCOc1cc2sc(N3CCC(C(=O)Nc4ccccc4Cl)CC3)nc2cc1Br,-1.7
CCC(=O)N1CCc2cc(S(=O)(=O)NCCC(=O)Nc3cc(C)ccc3OC)ccc21,-2
CNC(=O)C(C)N1CCOc2c(O)cc(-c3csc4ccccc34)cc2C1 (stereo not given),-1
COc1cc(NS(=O)(=O)c2ccc(NC(=O)c3ccc(C(C)=O)cc3)cc2)nc(OC)n1,-0.36
NC(=O)NCCCC(N)C(=O)NC1(CN2CCCCC2)CCCCC1 (stereo not given),-2
O=S1(=O)CCC(c2nc(CCc3ccccc3)nn2C2CCCCC2)C1 (stereo not given),0.76
Cc1ccc(N(CC(=O)Nc2ccc(Cl)cc2)S(=O)(=O)c2cccc3nonc23)cc1,0.65
Cc1ccc(/C=C(\C#N)c2nc(-c3ccc(-c4ccccc4)cc3)cs2)cc1,-0.51
CCc1nc2nc(C)cc(Nc3cccc(C)c3C)n2n1,-1.2
CC(C)NS(=O)(=O)c1cc(C(=O)O)cc(-c2ccc(N(C)C)nc2)c1,-1.2
Oc1ccc(Cl)c2cccnc12,2.4
COCCN1Cc2cccc(C(=O)Nc3ccc(Cl)cc3Cl)c2C1=O,-0.73
O=C(CC1COCCN1)N(CCc1c[nH]c2ccccc12)C1CCCCC1 (stereo not given),0.62
CC(C)=CCCn1nc(C2CCNCC2)n(-c2ccccc2)c1=O,-1.9
O=C(CSc1nnc2scc(-c3ccc(Cl)cc3)n12)Nc1cccc(C(F)(F)F)c1,-0.22

# The list is partial. The share of hits here may be higher or lower than overall.
